# Compound activity from PubChem.
# MT1-MMP act inh: MT1-MMP (human) activation inhibition; GFP/RFP ratio change, % at 20 µM; P50281; 360,000 tested, 0.061% active; HT1080 RFP-PRO-GFP cells, GFP/RFP ratio fluorescence, overnight; percent of plate control window, DMSO zero;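 active = GFP/RFP ratio change of at least 30% with cell ATP level not reduced by more than half and red fluorescence within 50% of control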; note: strong numbers were not always called active
#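 Assay system: HT1080 RFP-PRO-GFP cells | Dosing: 20 µM single dose, 1% DMSO | Incubation: Cells overnight before dosing, compound overnight, 37 °C, 5% CO2 | Evaluation: GFP/RFP fluorescence ratio | Control set: DMSO-only wells and HT1080 RFP-L50D-GFP cell wells as references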
# PABP FP inh: blocks human PABP binding to poly(A) RNA; 290,000 tested, 1% active; inhibition, % at 35 µM; fluorescence polarization; AID 2014;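 active = 50% or more with normal probe brightness, or confirmed in later tests; inconclusive = above 50% with abnormal brightness, or retests that disagree; inactive = below 50% or failed in later tests; about a fifth of its hits are not listed in these tables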;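 note: calls also rest on retests at 20 µM and on dose response follow-up; controls were probe without protein and protein plus probe with vehicle; some compounds called inactive have numbers as strong as hits; many hits fall short of the cut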
# CSC inhib: cancer stem cell inhibition; 300,000 tested, 1.1% active; inhibition, % at 7.5 µM; cancer stem cell-like cells viability, luminescence;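 active = mean at 75% or more and at least half the replicates too; inconclusive = mean and replicates disagree; tested in HMLE shEcad cells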;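 note: 0% = median of negative and 100% = median of positive control wells; the first replicate is given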
# Yeast UUG start: modulators of start codon recognition fidelity in yeast | S. cerevisiae UUG-firefly luciferase reporter, luminescence/redox ratio | AID 602363 | activity score, % at 18.7 µM | 350,000 tested, 0.13% active;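 active = replicate mean at a twofold rise or more, about +100% in these data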;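 note: firefly luciferase made from a UUG start codon reports start codon fidelity; reporter light over untreated wells divided by growth signal over untreated wells; some hits fall short of that in this replicate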
# HIV Env fusion: blocks HIV Env-driven cell-cell fusion; HeLa-JRFL Env/CEM21 cell fusion, luciferase; inhibition, % at 12.3 µM; 360,000 tested, 1.1% active;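 active = mean replicate inhibition score of at least 50 and every replicate individually at or above 50; inconclusive = only one of the two criteria met; inactive = mean below 50 and not all replicates reaching 50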;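 note: 0% = plate neutral controls and 100% = maraviroc near 300 nM; one replicate is shown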
# Rce1 inhib: yeast Ras-converting enzyme inhibition | yeast membranes, quenched prenylated peptide cleavage fluorescence | calls only | 290,000 tested, 0.27% active | AID 2563;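 active = fall in fluorescence gain of 50% or more versus controls, with final raw signal at or below 3038400; inconclusive = same 50% fall but final raw signal above 3038400; inactive = fall in fluorescence gain under 50%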;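 note: plate controls were neutral control wells for no effect and wells lacking membranes for full effect; tested at 10 µM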
# Target sequence (Q03530 whole entry, looked up): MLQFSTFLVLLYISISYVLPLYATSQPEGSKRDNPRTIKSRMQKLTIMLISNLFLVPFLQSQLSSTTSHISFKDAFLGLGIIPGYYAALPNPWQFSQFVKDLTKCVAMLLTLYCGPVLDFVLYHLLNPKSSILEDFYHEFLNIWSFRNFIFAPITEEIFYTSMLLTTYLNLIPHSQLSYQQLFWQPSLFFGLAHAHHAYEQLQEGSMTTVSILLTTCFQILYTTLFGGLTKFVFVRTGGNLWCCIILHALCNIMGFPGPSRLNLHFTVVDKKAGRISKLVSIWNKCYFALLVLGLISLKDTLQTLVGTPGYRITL
# eIF4H FP inh: inhibitors of RNA binding by human eIF4H; 290,000 tested, 0.94% active; AID 2012; inhibition, % at 35 µM; eIF4H fluorescence polarization binding assay; Q15056;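 active = 50% or more with normal probe brightness, or confirmed in later tests; inconclusive = above 50% with abnormal brightness, or retests that disagree; inactive = below 50% or failed in later tests; about a fifth of its hits are not listed in these tables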;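 note: calls also rest on retests at 20 µM and on dose response follow-up; 0% = protein and probe with vehicle and 100% = probe without protein; strong numbers were not always called active; many hits fall short of the cut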
# eIF4H FP inh retest: recorded beside eIF4H FP inh, whose call it bears; inhibition, %; compound at 20 µM; confirmation average;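 mean of two retest wells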
# PABP FP inh retest: recorded beside PABP FP inh, whose call it bears; inhibition, %; compound at 20 µM; confirmation repeats;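 mean of two retest wells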
# MT1-MMP act inh RFP: further read-out of MT1-MMP act inh, marked with its call; RFP signal change, %; measured here: RFP expression control read;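 0 = vehicle wells; hits needed this value within 50% of zero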
# Active calls of the source: *; i = inactive; ? = inconclusive; · = not tested or not shown; & = joins results of further samples. This is a random part of the collection; about 2.9% have a hit in one of these screens.
SMILES,MT1-MMP act inh,MT1-MMP act inh RFP,PABP FP inh,CSC inhib,Yeast UUG start,HIV Env fusion,Rce1 inhib,eIF4H FP inh,others
COc1ccc(/C(C)=N\Nc2nc(-c3ccccc3)cc(=O)[nH]2)cc1,-1,-2,7,5,-22,-4,i,7,
COc1cccc(/C=C2\CCCCC2=O)c1,5,-2,-9,-5,-2,-1,·,-6,
CN(C)Cc1ccccc1CNC(=O)c1cccc(S(=O)(=O)Nc2ccc3c(c2)OCO3)c1,2,4,·,·,1,-11,·,·,
COCCNC(=O)CNC(=S)N(Cc1ccccc1)Cc1cccnc1,-12,-2,-2,14,·,-6,i,-1,
COc1ccc(NC(=O)Nc2ccc3[nH]ccc3c2)cc1,1,1,·,-4,-20,-49,i,·,
Cc1ccc(Cl)cc1N1CCN(Cc2nc3c(c(=O)[nH]c(=O)n3C)n2Cc2ccccc2F)CC1,-29,-29,0,118*,9,-40,i,-8,
O=C(O)c1ccccc1NC(=O)C1C2C=CC(C2)C1C(=O)O (stereo not given),-1,2,0,-10,-18,-9,i,-10,
O=[N+]([O-])c1ccccc1/C=N/n1c(-c2cccnc2)n[nH]c1=S,3,1,-3,·,-10,·,i,-1,
CC1(C(=O)NS(=O)(=O)Cc2ccccc2)CCN1C(=O)C1(c2ccc(Cl)cc2)CCC1 (stereo not given),2,-3,·,·,18,-2,·,·,
Cc1cc(N2C(=O)C(=O)/C(=C(/O)c3ccc(Cl)cc3)C2c2cccc(Br)c2)no1 (stereo not given),3,-2,11,-13,-21,0,i,-9,
CCc1noc(C)c1C(=O)N1CCCC(C(=O)c2cc(F)ccc2OC)C1 (stereo not given),0,-2,-8,-3,·,23,i,-1,
Cc1nn(-c2ccccc2)c(C)c1/C=C/C(=O)OCC(=O)Nc1ncc(C(F)(F)F)cc1Cl,-5,3,-4,-17,0,·,i,-3,
C=CCn1c(O)c(N=NC(=O)C(O)c2ccccc2)c2ccccc21 (stereo not given),5,1,-3,-9,-5,2,i,-3,
CNc1nc(SC)nc2ccsc12,1,5,-7,-23,5,·,i,-9,
CSc1nc(SCC(=O)NCC2CCCO2)c2c3c(sc2n1)CN(C)CC3 (stereo not given),·,·,26,-5,·,4,i,12,
O=C(NCCC(=O)N1CCc2ccccc21)c1ccccc1Cl,-4,-3,3,-5,-6,-13,i,-15,
O=c1oc2ccccc2c(CNc2ccccc2)c1[N+](=O)[O-],-3,-5,-2,-9,-1,-12,i,8,
CSCCC(NC(=O)OC(C)(C)C)C(=O)NC(C(=O)NC(CC(C)C)C(N)=O)C(C)C (stereo not given),6,2,19,9,-14,·,i,5,
O=C(c1ccccc1)c1cc2ccccc2o1,1,3,-10,-8,2,·,i,2,
Cc1ccsc1/C=N\NC(=O)c1cc(C(C)(C)C)[nH]n1,-1,-3,5,-6,·,-24,i,0,
CCN(Cc1ccc2c(c1)OCCO2)S(=O)(=O)c1ccc(NC(C)=O)cc1,-2,-2,·,·,-12,-2,·,·,
C[C@H](CO)N1C[C@H](C)[C@@H](CN(C)S(=O)(=O)c2cccs2)Oc2ccc(NS(=O)(=O)c3cn(C)cn3)cc2C1=O,-3,1,·,-19,-8&5,18,·,·,
COc1cccc(Oc2nc(-c3ccccc3O)nc3ccccc23)c1,-2,-6,-2,6,16,6,i,3,
CC1(C(=O)NS(=O)(=O)c2ccc(Cl)s2)CCN1C(=O)C1CCCCC1 (stereo not given),2,7,·,·,-8,-32,·,·,
CCN(CC)CCCN(Cc1cc2cc3c(cc2[nH]c1=O)OCO3)C(=S)NC,1,3,-7,-6,-20,-5,i,1,

# Reprinted from the part before: two compounds, followed by the next part.
SMILES,MT1-MMP act inh,MT1-MMP act inh RFP,PABP FP inh,CSC inhib,Yeast UUG start,HIV Env fusion,Rce1 inhib,eIF4H FP inh,others
CC1(C(=O)NS(=O)(=O)c2ccc(Cl)s2)CCN1C(=O)C1CCCCC1 (stereo not given),2,7,·,·,-8,-32,·,·,
CCN(CC)CCCN(Cc1cc2cc3c(cc2[nH]c1=O)OCO3)C(=S)NC,1,3,-7,-6,-20,-5,i,1,
Cc1ccc(C(=O)NCCCN2CCOCC2)cc1Cl,2,3,2,5,-17,-6,i,0,
Cc1csc(NC(=O)c2ccccc2)n1,1,0,3,-2,-19,-23,i,-2,
COc1ccccc1CN1CC(C(=O)NCc2cccnc2)CC1=O (stereo not given),1,1,-14,6,6,·,i,0,
CCc1nnc(NC(=O)CCC(=O)N2CCN(c3cccc(Cl)c3)CC2)s1,0,1,1,-3,1,-6,i,-20,
Cc1nn(C)c(C(=O)N/N=C/c2ccccn2)c1[N+](=O)[O-],0,4,-12,-7,-10,-12,·,-4,
CCCCCC/C=C/c1ccc([C@H]2[C@H]3C=CC[C@@H](C)[C@@H]3C(=O)N2Cc2ccccc2)c(F)c1,-2,-4,-4,18,-9,1,i,-8,
CCN=c1scc(C)n1/N=C/c1ccc(O)c(O)c1O,3,-2,27*,9,-13,-11,i,82*,eIF4H FP inh retest=90*;PABP FP inh retest=64*
Cc1cc(C)n(CC2CC(=O)N(c3ccc(C)c(Cl)c3)C2=O)n1 (stereo not given),5,3,100*,-5,·,14,i,?,PABP FP inh retest=122*
Cc1nc(NCC2CCCO2)c2oc3ccccc3c2n1 (stereo not given),12,-3,32,2,-8,19,i,0,
Cc1cccc(OCCCCCn2ccnc2)c1,3,-4,-2,56,2,-7,i,-4,
O=C(NCc1ccc(F)cc1)C1CCC(=O)N1CCc1ccccc1 (stereo not given),-3,0,0,-9,-26,9,i,-9,
Cn1c(=O)c2c(nc(CN3CCC(C(N)=O)CC3)n2Cc2ccccc2Cl)n(C)c1=O,3,4,8,·,-5,10,i,-2,
CSc1ccccc1NC(=O)CSc1n[nH]c(N)n1,0,2,-6,16,-30,8,i,-6,
Cc1ccc(S(=O)(=O)N2CCOCC2)cc1C(=O)OCC(=O)Nc1ccc2c(c1)OCO2,8,-2,5,4,-10,·,i,1,
CCOc1ccc2nc(NC(=O)CSC3=NCCS3)sc2c1,-6,-14,-9,·,-19,·,i,-13,
Cn1cnnc1Sc1ccc(C(=O)OCC(=O)NCC(F)(F)F)cc1[N+](=O)[O-],2,1,2,-11,-10,3,i,3,
CCOC(=O)C1C(=O)NC(SC)=C(C#N)C1c1ccccc1F (stereo not given),-1,2,10,5,-15,0,i,-2,
CN1CCN(c2nc3ccccn3c(=O)c2C=O)CC1,0,3,20,-12,-16,·,i,7,
COCCn1c(-c2ccc(Cl)cc2Cl)nc2c(c(=O)c3ccccc3n2C)c1=O,-1,-3,-2,-6,·,-9,i,4,
Cc1ccc(S(=O)(=O)N[C@H](C(=O)N2CCC(C(=O)N3CCC[C@H]3C(=O)O)CC2)C(C)C)cc1,2,0,7,·,-5,·,i,3,
COc1ccccc1NC(=O)C(C)N1CCN(C/C=C/c2ccccc2)CC1 (stereo not given),5,2,-4,11,-21,·,i,-6,
CC(C)(C)S(=O)(=O)c1ccccc1C(=O)O,-3,4,2,4,-9,·,i,-14,
Cc1ccc(C(=O)COC(=O)CN2C(=O)C3C4CC(C(Br)C4Br)C3C2=O)cc1 (stereo not given),-4,-3,2,-8,-6,14,i,-1,
O=C(O)C1CCCN1C(=O)OCC1c2ccccc2-c2ccccc21 (stereo not given),-2,3,4,-6,·,-13,i,-1,
CCNC(=S)NNC(=O)c1cc(-c2cccc(C)c2)nc2ccccc12,9,0,2,11,-30,·,i,3,
# (cont.)
SMILES,MT1-MMP act inh,MT1-MMP act inh RFP,PABP FP inh,CSC inhib,Yeast UUG start,HIV Env fusion,Rce1 inhib,eIF4H FP inh,others
COc1cc(-c2cnc3c(NC=O)cc(-c4cccc(C(=O)NCCN(C)C)c4)cn23)cc(OC)c1OC,12,8,·,·,-17,-7,·,·,
Cn1cccc1-c1cc(C(=O)N/N=C/c2cc(Br)ccc2O)[nH]n1,1,-3,-1,·,-16,-3,i,9,
Nc1nc(SCn2nnc3ccccc3c2=O)n[nH]1,1,2,3,-10,-18,17,i,8,
CCN(CC(=O)Nc1ccc(N2CCOCC2)cc1)C(=O)c1ccc(C(F)(F)F)cc1,1,-2,-13,-2,·,17,i,-6,
CSC1=N/C(=C\c2ccc(C)cc2)C(=O)S1,-1,4,7,-1,-13,·,i,5,
COc1cccc(C2c3[nH]c4ccccc4c3CCN2Cc2cccc(C)n2)c1 (stereo not given),-7,1,2,-3,·,-7,i,2,
Cc1ccc(C)c(S(=O)(=O)N2CCN(C(=O)Cc3ccccc3)CC2)c1,-3,-3,·,-4,1,·,i,·,
CN(CC(=O)Nc1cccc(F)c1)C(=O)CNC(=O)Cc1cccc2ccccc12,3,3,·,·,18,7,·,·,
CCC(c1nnnn1Cc1ccco1)N1CCC(C(N)=O)CC1 (stereo not given),-7,-1,29,-4,-11,·,i,15,
NC(=O)[C@@H]1CCCN1Cc1c(C(=O)N2CCN(C3CCCCC3)CC2)nc2ccccn12,-2,4,11,-1,-13,-9,i,13,
COc1ccc(Cn2nnnc2C(c2ccccc2OC)N2CCC(C(N)=O)CC2)cc1 (stereo not given),-1,3,4,-10,-13,·,i,-6,
COC(=O)C(CC(=O)Nc1cc(C)ccc1C)Nc1ccccc1OC (stereo not given),-7,0,2,1,-19,19,i,1,
CCc1nc2c(OCCn3cccc3)cccn2c1N(C)C(=O)CC(C)C,0,3,·,·,7,-10,·,·,
O=c1nc2n(c3c1oc1ccccc13)Cc1ccccc1-2,·,·,-5,·,1,·,i,0,
COc1ccccc1OCC(=O)NCc1nc(-c2ccccc2)no1,12,11,3,2,-14,12,i,0,
Cc1cccc(NC(=O)CN2C(=S)NC(C)(C)CC2C)c1C (stereo not given),1,4,2,·,-28,9,i,-1,
Cc1ccc(-n2nnnc2CNC(=O)c2ccc(Br)o2)cc1C,-1,0,-11,-18,-9,-18,i,-6,
O=C(Cc1ccc(-n2cccc2)cc1)NC1CCCCC1,3,-1,2,-12,-12,·,i,-4,

# Sorted by count of non-hydrogen atoms (rising): part of the list above.
SMILES,MT1-MMP act inh,MT1-MMP act inh RFP,PABP FP inh,CSC inhib,Yeast UUG start,HIV Env fusion,Rce1 inhib,eIF4H FP inh,others
CSC1=N/C(=C\c2ccc(C)cc2)C(=O)S1,-1,4,7,-1,-13,·,i,5,
Nc1nc(SCn2nnc3ccccc3c2=O)n[nH]1,1,2,3,-10,-18,17,i,8,
Cc1cccc(NC(=O)CN2C(=S)NC(C)(C)CC2C)c1C (stereo not given),1,4,2,·,-28,9,i,-1,
CCC(c1nnnn1Cc1ccco1)N1CCC(C(N)=O)CC1 (stereo not given),-7,-1,29,-4,-11,·,i,15,
COC(=O)C(CC(=O)Nc1cc(C)ccc1C)Nc1ccccc1OC (stereo not given),-7,0,2,1,-19,19,i,1,
CCc1nc2c(OCCn3cccc3)cccn2c1N(C)C(=O)CC(C)C,0,3,·,·,7,-10,·,·,
COc1cccc(C2c3[nH]c4ccccc4c3CCN2Cc2cccc(C)n2)c1 (stereo not given),-7,1,2,-3,·,-7,i,2,
CN(CC(=O)Nc1cccc(F)c1)C(=O)CNC(=O)Cc1cccc2ccccc12,3,3,·,·,18,7,·,·,
CCN(CC(=O)Nc1ccc(N2CCOCC2)cc1)C(=O)c1ccc(C(F)(F)F)cc1,1,-2,-13,-2,·,17,i,-6,
NC(=O)[C@@H]1CCCN1Cc1c(C(=O)N2CCN(C3CCCCC3)CC2)nc2ccccn12,-2,4,11,-1,-13,-9,i,13,
COc1cc(-c2cnc3c(NC=O)cc(-c4cccc(C(=O)NCCN(C)C)c4)cn23)cc(OC)c1OC,12,8,·,·,-17,-7,·,·,
